# Sa helicase inh: blocks Staphylococcus aureus DNA helicase | purified S. aureus helicase, fluorescence unwinding assay; about half of the hits fall short of the stated cut | inhibition, %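 (tested at about 80 µM)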 | hit rate 0.05% among 120,000 | AID 485395;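 active = both duplicates at 50% or more, or one of them with a favoured structure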;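 also: 0% = mean of negative control wells and 100% = mean of positive control wells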
# MgrA DNA FP: modulators of Staphylococcus aureus MgrA DNA binding | inhibition, %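 (about 10 µg/mL by stock and volumes)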 | fluorescence polarization | hit rate 0.13% among 84,000 | AID 602314;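 active = above 50% in either of two replicates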;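 also: 0% = protein plus DNA without compound and 100% = DNA alone without protein; higher means less MgrA bound to DNA so lower polarization; one replicate is shown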
# The depositor's hits bear a star; · = not tested or not shown. This is a subset, so the mix of outcomes need not match the whole.
structure,MgrA DNA FP,Sa helicase inh
CCOC(=O)C1=C(C)N=c2s/c(=C3\C(=O)N(C)c4ccccc43)c(=O)n2C1c1ccc(OC(C)=O)cc1 (configuration not stated),-1.4,·
O=C(N/N=C/c1ccncc1)C12CC3CC(CC(C3)C1)C2,·,4
O=C(O)COCC(=O)Nc1nnc(C2CC2)s1,-5.1,·
CCOC(=O)c1c(N)sn(-c2ccccc2)c1=S,·,-11
COc1ccc(S(=O)(=O)N2CCCC(C(=O)N(Cc3cccs3)C3CC3)C2)cc1Cl (configuration not stated),1.4,6
CC1(O)CC(c2ccccc2)SC(c2ccccc2)C1 (configuration not stated),·,-12
CCOC1Cc2ccccc2N(C(N)=O)c2ccccc21 (configuration not stated),2.3,-2
O=C(Cn1c(=O)n(Cc2ccc(C(=O)NCc3ccco3)cc2)c(=O)c2sccc21)Nc1ccc(F)cc1,·,9
Cc1ccc(-n2ncc3c(N(C)C)ncnc32)cc1,·,2
Cc1ccc(Cl)cc1NCN1C(=O)CNC1=S,·,-17
CCCN(c1ccc(OCC)cc1)c1ncnc2nc[nH]c12,·,17
Cc1cc(C(=O)NC2CCCC2)on1,1.9,3
Cc1cc(C)c2c(-n3cccc3)c(C(=O)N3CCC(C)CC3)sc2n1,0.4,16
COc1ccc(-c2nc3ccccc3n2C(=O)c2ccccc2C(=O)O)cc1,·,23
Cc1cccc(NS(=O)(=O)c2cccc(C(=O)OC(C)C(N)=O)c2)c1 (configuration not stated),·,-7
Cc1ccc(C(C)C)c(OCCCCn2ccnc2)c1,-15,4
c1csc(-c2noc(CCCN3CCNCC3)n2)c1,·,15
COc1ccc(C2(C(=O)NCC3CCCO3)CCOCC2)cc1 (configuration not stated),-1.9,0
CCCC1CCC(c2ccc(OC(=O)c3ccco3)cc2)CC1 (configuration not stated),3.2,1
CN(C)/C=C/C(=O)c1cc(-c2ccccc2)no1,·,-7
CC(C)c1nc(-c2c(N)n(C)c(=O)n(C)c2=O)sc1C(=O)C(C)(C)C,·,-10
O=C(c1cnc(-c2ccccc2)nc1-c1ccccc1)N1CCOCC1,-0.3,·
N#CCc1cccc(N)c1,·,30
CCOC(=O)c1cnc2c(c(C)nn2C)c1NCc1ccco1,·,15
O=C(O)CSCC(=O)Nc1nnc(C2CC2)s1,-4.6,·
COc1ccc(/C=C2/C(=O)Nc3ccccc32)cc1,-2.9,·
NC(=O)Oc1cccc2ccccc12,-2.8,12
CC1CCc2cc(F)ccc2N1C(=O)Cn1c2ccccc2c(=O)c2ccccc21 (configuration not stated),-4.4,·
CC(C)(C)N(Cc1ccccc1)C(=O)C1COc2ccccc2O1 (configuration not stated),0.9,-2
CC(C)c1nnc(NC(=O)C(C(C)C)N2C(=O)c3ccccc3C2=O)s1 (configuration not stated),·,15

# Further compounds
structure,MgrA DNA FP,Sa helicase inh
COc1cc2nc(SCC(=O)N(C)C3CCCCC3)n3nc(C)nc3c2cc1OC,1.2,17
Cc1ccc(NC(=O)CC2S/C(=N/N=C/c3cccs3)NC2=O)cc1 (configuration not stated),0.9,10
COc1ccc(NC(=O)CC23CC4CC(CC(C4)C2)C3)cc1,-0.9,·
Cc1cc(=O)[nH]c(SCc2cccc3cccnc23)n1,·,15
CCc1ccc(NC(=O)N2CCOc3ccccc32)cc1,·,11
Cn1cc(S(=O)(=O)N2CCCC2)cc1C(=O)N1CCC(Cc2ccccc2)CC1,1.9,3
COc1cccc(-c2noc(C3CCCN(C(=O)Cc4ccccc4)C3)n2)c1 (configuration not stated),-3.1,8
O=C(NCC1COc2ccccc2O1)c1ccc(NC(=O)C2CCCO2)cc1 (configuration not stated),0.2,8
COC(=O)c1c(C)[nH]c(C(=O)OCC(=O)Nc2ccccc2)c1C,·,-3
CN1C=CC(=C2C(=O)c3ccccc3C2=O)C=C1,·,4
O=C(NC(=O)c1ccc(F)c(Cl)c1)Nc1nnc(C(F)(F)F)s1,6.0,·
CCCn1c(CCCO)nc2ccccc21,·,-8
CCc1ccc(Nc2nc3cc(OC)ccc3cc2C#N)cc1,0.0,2
CCOC(=O)C1=C(N)OC2=C(C(=O)CC(C)(C)C2)C1c1ccccc1[N+](=O)[O-] (configuration not stated),3.2,·
CCOC(=O)C1CCN(Cc2nc3ccccc3c(=O)n2-c2ccc(OCC)cc2)CC1,0.8,20
COC(=O)c1ccc(S(=O)(=O)Nc2ccc(N3CCOCC3)cc2)n1C,-1.4,·
O=c1c2oc3ccccc3c2[nH]c(=S)n1CCc1ccccc1,·,-28
CN1CCCC(n2nc(Cc3ccc(Cl)cc3)c3ccccc3c2=O)CC1 (configuration not stated),4.0,·
CN(C(=O)c1ccccc1)c1nc(-c2ccccc2)cs1,-4.3,5
O=C(c1ccc(F)cc1)c1coc2ccc(O)cc12,·,-12
O=C(O)CC(NC(=O)Nc1ccccc1)c1ccsc1 (configuration not stated),-0.1,·
COc1ccc(C)cc1N=Cc1ccc(C)s1,-0.6,-16
CC12CN(C(=O)c3ccccc3)C3(C#N)CC1CCC23C (configuration not stated),1.6,8
NC(=O)NCc1ccco1,·,-1
CCNCc1cccs1,·,-3
COc1ccccc1NC(=O)c1ccccc1NS(=O)(=O)N1CCCC1,-2.0,3
CCOC(=O)c1c(C)[nH]c(C(=O)C(C)C)c1C,·,3
CC1CC(CN)CC(CO)C1 (configuration not stated),0.4,6
O=C(OCc1nnc(-c2cc3c(s2)CCCC3)o1)c1cccc(CN2C(=O)c3ccccc3C2=O)c1,·,15
Cn1cnc2c(=O)oc3ccc(S(=O)(=O)NC4CCCC4)cc3c21,·,-11

# (continued)
structure,MgrA DNA FP,Sa helicase inh
Cc1cc(N/C=C2/C(=O)c3sccc3N(Cc3cccc(F)c3)S2(=O)=O)no1,·,-22
CCS(=O)(=O)N1CCN(C(=O)c2ccccc2Cl)CC1,0.5,17
COc1ccc2[nH]cc(CCC(=O)O)c2c1,·,18
O=C(NCc1cccs1)c1cc(F)cc2c1OCOC2,-2.0,·
NC(=S)CSc1ccccc1,0.7,·
CC1=C(c2ccccn2)Oc2ccccc2O1,-8.2,-13
FC(F)(F)c1ccc(SCc2ccc(-c3ncns3)cc2)nc1,-2.8,·
CN(c1ccccc1)S(=O)(=O)Cc1ccccc1,-2.4,10
CCOC(=O)/C(C#N)=C/Nc1ccc2oc3ncccc3c(=O)c2c1,-1.1,·
CCOC(=O)c1c(O)cc(C)cc1Nc1ccccc1,-0.8,8
N#Cc1ccccc1NC(=O)c1ccco1,-1.6,·
CNCC(=O)N(C)c1c(N)n(Cc2ccccc2)c(=O)[nH]c1=O,·,-9
CCOC(=O)c1cc(S(=O)(=O)NC(C)CC)cn1C (configuration not stated),0.2,-2
O=C(Nc1ccc(-n2nncc2-c2ccccc2)cc1)c1ccc(F)cc1,·,16
Cc1ccc(C(=O)c2cnc3cc4c(cc3c2N2CCCC2)OCO4)cc1C,·,-9
CCCc1[nH]n(C)c(=O)c1C(=O)c1cc2ccccc2s1,-5.8,·
COC(=O)c1sccc1N1CC(C)(C)C1=O,2.5,·
CC(C)(C)NC(=O)NC(=O)Cn1nnc(-c2ccccc2)n1,·,-2
Cc1ccc(-c2[nH]c(-c3ccc(F)cc3)nc2SCC(=O)NCC2CCCO2)cc1 (configuration not stated),-0.6,6
COC(=O)c1cn(-c2ccccc2)nc1-c1cccnc1,-0.2,8
c1ccc2sc(CSC3=NCCN3)nc2c1,·,11
CC(C)c1ccc(NC(=O)COC(=O)C2CCCCC2)cc1,-1.5,-6
O=C(CNc1ccc(Br)cc1)N/N=C/c1ccco1,·,-35
COc1ccc(N2C(=O)NC(=O)/C(=C/c3cc(Br)c(O)c(OC)c3)C2=O)cc1,12,·
O=C(Nc1ccc(N2CCOCC2)c(Cl)c1)c1ccccc1,-0.3,·
C=CCN1C(=O)/C(=c2\sc3n(c2=O)C(c2cccs2)C(C(=O)OCC)=C(C)N=3)c2ccccc21 (configuration not stated),-0.9,·
CCS(=O)(=O)N1CCC(C(=O)N2CCN(Cc3ccc4c(c3)OCO4)CC2)CC1,-3.1,-1
NS(=O)(=O)c1ccc(NC(=O)c2ccc(Cl)s2)cc1,·,12
C=CCN1C(=O)c2ccc(C(=O)OCC(=O)Nc3ccccc3OC)cc2C1=O,·,-10
COCCNC(=O)Nc1ccc2c(c1)nc(C)n2C,-1.0,16

# Four successive entries from above:
structure,MgrA DNA FP,Sa helicase inh
COC(=O)c1cn(-c2ccccc2)nc1-c1cccnc1,-0.2,8
c1ccc2sc(CSC3=NCCN3)nc2c1,·,11
CC(C)c1ccc(NC(=O)COC(=O)C2CCCCC2)cc1,-1.5,-6
O=C(CNc1ccc(Br)cc1)N/N=C/c1ccco1,·,-35

# More results follow:
structure,MgrA DNA FP,Sa helicase inh
Cc1ccc(-n2c(O)c(C=NCc3ccncc3)c3ccccc3c2=O)cc1C,-0.9,-16
CNC(=O)NCc1c(N(C)C)cccc1N(C)C,-0.4,·
CN1CCN(CC(=O)N/N=C/c2ccc(F)c(F)c2)CC1,-1.8,5
Cc1ccc2oc(=O)c(CCC(=O)O)nc2c1,-3.9,-1
CC(=O)N(Cc1cccc(Br)c1)c1ccc2oc(-c3ccc(C)cc3)nc2c1,0.9,12
O=C(COc1ccccc1O)NCCO,·,-1
CC(=O)c1cc2ccccc2o1,0.4,·
O=S(=O)(Nc1nonc1NS(=O)(=O)c1ccc(F)cc1)c1ccc(F)cc1,3.9,13
CN1C(=O)C(CC(=O)NCC2CCCCC2)SC1=Nc1ccccc1 (configuration not stated),0.5,-6
c1ccc(CSc2nc3ncccc3o2)cc1,·,5
CN(CC(=O)Nc1ccc(F)cc1)C(=O)c1ccc2ccccc2n1,·,-6
Cc1ccc(NC(=S)N(CCc2ccccc2)Cc2ccccc2)cc1,3.4,6
CCCCn1c(SCc2nnc(-c3cccs3)o2)nc2cc(S(N)(=O)=O)ccc21,·,-5
Cc1c(C(=O)N2CCN(c3ccccc3F)CC2)sc2nc3n(c(=O)c12)CCCC3,0.8,12
Cc1cc(C)nc(NCC(O)CNc2ccccc2C)n1 (configuration not stated),-3.4,3
O=c1cc(CSc2ccc(Cl)cc2)nc2sccn12,·,-1
CCOc1ccc2c(C)c(Cl)c(=O)oc2c1C,0.4,20
CCOc1ccc(C2CC(=O)NC(SCC(=O)Nc3ccccc3Cl)=C2C#N)cc1 (configuration not stated),·,7
Cc1c(C#N)c(N)nc(SCC(=O)c2cc3ccccc3oc2=O)c1C#N,·,20
COc1ccc2c(ccc(/C=C3\Sc4ccccc4N3C)[n+]2C)c1,24,-222
CCOC(=O)CSC1=Nc2ccccc2C2=NC(CC(=O)NCc3ccc(OC)cc3)C(=O)N12 (configuration not stated),·,7
N#Cc1ccc(/C=N/n2cnnc2)cc1,·,0
O=C(CSc1ncn[nH]1)NCc1ccccc1,1.4,8
O=C(CCCN1C(=O)c2ccccc2C1=O)Nc1ccccc1,·,0
Cc1ccc(F)cc1N1C(=O)COCC1=O,-0.9,·
Cc1c(Br)c(C(F)(F)F)nn1CC(=O)Nn1c(-c2cccs2)nc2ccccc2c1=O,0.1,·
NC1CCN(Cc2ccccc2)CC1,·,15
CCNC12CC3CC(CC(C3)C1)C2,-0.7,3
CCOC(=O)C1CCCN(C(=O)c2cncc(Br)c2)C1 (configuration not stated),-2.0,-19
COc1ccc(NC(=O)CSC(=O)c2ccccc2)cc1Cl,2.9,-22

# More entries:
structure,MgrA DNA FP,Sa helicase inh
Cc1ccc(C)c(OCCC(=O)N=c2sccn2C)c1,·,-2
NC(=O)COc1ccc(/C=N/NS(=O)(=O)c2ccccc2)cc1,·,-10
Cc1cnc(CC#N)s1,·,-8
CCNc1nc(NC(C)C)nc(OCCNC(=O)COc2ccc(Cl)cc2C)n1,0.5,16
COc1ccc2[nH]cc(CCNC(=O)C3CC3)c2c1,·,10
Cc1ccc(C)c(CSc2ncccc2C(=O)O)c1,·,-3
O=C(c1ccc(Cl)cc1)c1cnc2ccccn12,-0.5,·
CC(SC1=NCCS1)C(=O)Nc1nnc(-c2ccc(Cl)cc2)s1 (configuration not stated),·,-2
O=C(c1cc2c(s1)CCC2)N1C(=O)c2ccccc2S1(=O)=O,·,9
CC1=CC(=C(C#N)C#N)C=C(C)N1Cc1cccnc1,·,13
Cc1c(Cl)cccc1N=C1SCC(=O)N1Cc1ccco1,·,2
O=CNCc1ccccc1OC(F)F,·,-8
O=C(Nc1ncnc2sc3c(c12)CCC3)c1cccs1,-2.1,6
N#Cc1ccc(COC(=O)C2CCCCC2)cc1,·,14
COC(=O)c1ccc(COC(=O)C2CSC3(c4ccc(Br)cc4)CCC(=O)N23)o1 (configuration not stated),·,2
C=C(C)C1Cc2cc3ccc(=O)oc3cc2O1 (configuration not stated),-3.2,1
COc1ccc(C2CC3(OCCO3)C3(CCCCC3)O2)cc1 (configuration not stated),1.9,-2
Cc1nn(-c2cccc(Cl)c2)nc1C(=O)N(C)CC(=O)NCc1ccco1,·,-16
O=C(CSc1nc(-c2ccccc2)c(-c2ccccc2)[nH]1)NCc1ccco1,2.9,-9

# Single values from above:
# MgrA DNA FP with `O=C(Nc1ncnc2sc3c(c12)CCC3)c1cccs1` : -2.1
# Sa helicase inh with `N#Cc1ccc(COC(=O)C2CCCCC2)cc1` : 14
# Sa helicase inh with `O=C(c1cc2c(s1)CCC2)N1C(=O)c2ccccc2S1(=O)=O` : 9
# Sa helicase inh with `Cc1ccc(C)c(CSc2ncccc2C(=O)O)c1` : -3
